Screens (PubChem BioAssay)
HSV augment: increases HSV replication in cells; HSV replication augmentation in cells, fold increase; maximum fold increase; hit rate 0.005% among 220,000; AID 1956;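 active = peak rise of 1.5-fold or more in the series; tested in PC3 cells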;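 also: first round at 10 µM; read as green reporter fluorescence; hits show the peak of a series up to 25 µM; 1 = signal of infected wells without compound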
GALR2 ag: activates the human galanin receptor 2; O43603; GALR2-expressing cells, agonist activation read-out; activation, %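 (tested at 5 µM)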; hit rate 0.48% among 140,000;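 active = above mean plus 3 SD of all compounds, about 5% in these data, not always enough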;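 also: 0% = vehicle buffer wells and 100% = reference agonist at full effect; tested in CHO reporter cells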
Target sequence (O43603 whole entry, looked up): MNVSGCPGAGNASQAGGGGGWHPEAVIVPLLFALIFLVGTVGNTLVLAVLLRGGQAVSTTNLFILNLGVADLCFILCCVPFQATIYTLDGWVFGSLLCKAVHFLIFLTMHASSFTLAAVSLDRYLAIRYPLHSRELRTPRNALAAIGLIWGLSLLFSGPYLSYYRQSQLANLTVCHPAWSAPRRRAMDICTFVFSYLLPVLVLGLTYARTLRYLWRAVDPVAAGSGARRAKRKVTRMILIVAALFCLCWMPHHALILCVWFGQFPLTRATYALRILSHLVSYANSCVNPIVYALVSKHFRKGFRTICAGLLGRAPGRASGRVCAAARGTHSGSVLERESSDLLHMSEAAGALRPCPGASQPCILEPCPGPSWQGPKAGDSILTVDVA
PKD1 inh: PKD1 (human) kinase inhibition. Q15139. PKD1 kinase fluorescence polarization assay. inhibition, %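 (about 10 µM by stock and volumes)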. hit rate 0.056% among 200,000;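 active = inhibition of 50% or more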;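 also: controls were vehicle for no effect and a reference inhibitor for full effect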
RGS16-Gao: modulates binding between human RGS16 and Galphao; O15492+P09471; bead-based flow cytometry RGS16-Galphao binding, fluorescence; actives lie on both sides; binding response (% of control), % at 10 µM; hit rate 0.38% among 220,000;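 active = below 25% or above 175%, edge rows of some plates excepted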;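 also: Galphao activated by GDP with aluminum fluoride before binding; 100% = wells without compound and 0% = beads without RGS; some results beyond the cut were filed as inactive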
Target sequence (O15492 whole entry, looked up): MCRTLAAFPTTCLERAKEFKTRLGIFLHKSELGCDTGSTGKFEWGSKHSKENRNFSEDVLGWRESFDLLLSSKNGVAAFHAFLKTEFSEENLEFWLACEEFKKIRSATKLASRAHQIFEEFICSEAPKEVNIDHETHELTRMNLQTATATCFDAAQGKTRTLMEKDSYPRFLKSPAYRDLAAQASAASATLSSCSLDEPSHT
Target sequence (P09471 whole entry, looked up): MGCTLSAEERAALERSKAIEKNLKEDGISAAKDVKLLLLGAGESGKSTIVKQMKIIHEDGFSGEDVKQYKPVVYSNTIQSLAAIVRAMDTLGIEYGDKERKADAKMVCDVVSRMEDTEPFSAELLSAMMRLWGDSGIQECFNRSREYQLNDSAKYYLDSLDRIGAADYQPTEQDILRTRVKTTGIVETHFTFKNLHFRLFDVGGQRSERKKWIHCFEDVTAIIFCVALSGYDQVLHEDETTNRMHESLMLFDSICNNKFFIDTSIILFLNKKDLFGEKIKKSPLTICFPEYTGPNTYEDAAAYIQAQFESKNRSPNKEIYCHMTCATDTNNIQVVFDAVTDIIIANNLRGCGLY
INS promoter inh: TRM-6 insulin promoter activity inhibition. hit rate 0.9% among 130,000. TRM-6 cells (human fetal islet line), insulin promoter-eGFP reporter, imaging; reporter expression induced with tamoxifen. inhibition, % at 2 µM;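 active = inhibition above the mean plus 3 SD, with well images judged a real hit on visual review, cut at about 60% in these data, passing the limit was not always enough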
INS promoter inh cell count: recorded beside INS promoter inh, whose call it bears; normalized cell count, %; measured here: cell count, toxicity; reference of the scale not given here;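 cells exposed to compound for 48 h; stained nuclei by imaging scaled within each plate; lower means fewer cells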
HSV augment primary fold: recorded beside HSV augment, whose call it bears; fold increase; compound at 10 µM; measured here: primary screen fold increase 10 uM; tested in PC3 cells;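 GFP signal in the first replicate; 1 = infected wells without compound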
Numbers without * were called inactive; i = inactive; · = not tested or not shown; & = joins results of further samples.

The opening 6 compounds (preview)
entry	SMILES	HSV augment	HSV augment primary fold	GALR2 ag	PKD1 inh
1	CC1(C)CC(=O)C2=C(C1)OC(N)=C(C#N)C2c1cccc(OC(=O)c2ccco2)c1 (stereo not given)	i	1.13	-0.3	-7.7
2	Cc1nc(CNC(=O)CC2C(=O)NCCN2Cc2cccc(Oc3ccccc3)c2)cs1 (stereo not given)	i	1.17	·	2.9
3	CCOC(=O)c1cc(C(=O)OCC)c(=O)[nH]c1N1CCCC1	i	1	·	-2.9
4	CN(C)c1ccc(/C=N/N(Cc2ccccc2)c2ccccc2)cc1	i	1.22	0.8	-2.1
5	Clc1cccc(CSc2ncn(-c3ccccc3)n2)c1	i	0.89	-3.6	-4.3
6	O=C(c1ccccc1Br)N1CCN(c2ccc([N+](=O)[O-])c(N3CCOCC3)c2)CC1	i	0.87	·	0.8

entry	RGS16-Gao	INS promoter inh	INS promoter inh cell count
1	101.9	·	·
2	102.3	·	·
3	100.7	-35.3	81.1
4	101.8	·	·
5	111.0	-183.3	92.7
6	102.4	·	·

The listing, from the start:
entry	SMILES	HSV augment	HSV augment primary fold	GALR2 ag	PKD1 inh
1	CC1(C)CC(=O)C2=C(C1)OC(N)=C(C#N)C2c1cccc(OC(=O)c2ccco2)c1 (stereo not given)	i	1.13	-0.3	-7.7
2	Cc1nc(CNC(=O)CC2C(=O)NCCN2Cc2cccc(Oc3ccccc3)c2)cs1 (stereo not given)	i	1.17	·	2.9
3	CCOC(=O)c1cc(C(=O)OCC)c(=O)[nH]c1N1CCCC1	i	1	·	-2.9
4	CN(C)c1ccc(/C=N/N(Cc2ccccc2)c2ccccc2)cc1	i	1.22	0.8	-2.1
5	Clc1cccc(CSc2ncn(-c3ccccc3)n2)c1	i	0.89	-3.6	-4.3
6	O=C(c1ccccc1Br)N1CCN(c2ccc([N+](=O)[O-])c(N3CCOCC3)c2)CC1	i	0.87	·	0.8
7	N#Cc1ccc(NC(=O)CNc2cc(S(=O)(=O)N3CCOCC3)ccc2NCC2CCCO2)cc1 (stereo not given)	i	0.99	·	-3.4
8	C=CCN1C(=O)C(Cc2ccc(C)cc2)S/C1=N/N=C/c1ccco1 (stereo not given)	i	0.97	-2.7	-4.4
9	CCCOc1ccc(C(O)C(CN2CCOCC2)c2ccccc2)cc1 (stereo not given)	i	1.07	-1.4	-2.3
10	Cc1ccc(C)c(OCC(=O)Nc2ccc(S(=O)(=O)Nc3ccccn3)cc2)c1C	i	0.97	-0.8	-4.4

entry	RGS16-Gao	INS promoter inh	INS promoter inh cell count
1	101.9	·	·
2	102.3	·	·
3	100.7	-35.3	81.1
4	101.8	·	·
5	111.0	-183.3	92.7
6	102.4	·	·
7	99.6	-7.1	119.1
8	103.8	16.7	84.2
9	108.2	-20.0	126.7
10	201.0	33.3	90.1

Following part:
entry	SMILES	HSV augment	HSV augment primary fold	GALR2 ag	PKD1 inh
11	CC(=O)Nc1ccc(NC(=O)CSc2ncnc3c2cnn3Cc2ccccc2)cc1	i	0.96	·	·
12	CCO[C@@H]1OC(C(=O)NC2CC2)=C[C@H](c2c[nH]c3ccccc23)[C@H]1CCCO	i	1.19	·	·
13	CCCC(=O)OCC(=O)NC1CCCc2ccccc21 (stereo not given)	i	1.05	·	9.0
14	NC(=O)CC(NC(=O)Cc1cccc2ccccc12)c1ccc(N2CCN(c3ccccc3)CC2)c([N+](=O)[O-])c1 (stereo not given)	i	0.9	·	·
15	C=C(C)COc1ccc(-c2[nH]ncc2-c2ccccc2)c(O)c1	i	0.653	-0.1	-1.3
16	CCc1ccccc1NC(=S)NCCSc1ccc(Cl)cc1	i	1.01	·	-1.5
17	O=C(/C=C/c1ccc2ccccc2n1)c1cc(Br)ccc1O	i	1.26	·	·
18	O=C(Nc1cccc(F)c1)c1cc(S(=O)(=O)N2CCC3(CC2)OCCO3)ccc1F	i	0.87	·	-2.0
19	CC(C)Cc1nnc(NC(=O)CCC(=O)Nc2ccccc2F)s1	i	0.96	·	·
20	CC1CCN(C(=O)CSc2nnc(-c3ccco3)o2)CC1	i	1.06	-1.6	-9.2

entry	RGS16-Gao	INS promoter inh	INS promoter inh cell count
11	95.3	·	·
12	101.9	·	·
13	98.8	-83.3	109.9
14	99.3	·	·
15	97.5	-13.2	112.9
16	76.5	26.7	79.3
17	110.6	·	·
18	99.5	-50.0	99.4
19	98.0	·	·
20	136.1	·	·

The list continues.
entry	SMILES	HSV augment	HSV augment primary fold	GALR2 ag	PKD1 inh
21	Cc1cc(C)c(C#N)c(SCC(=O)N2CCN(Cc3ccccc3)CC2)n1	i	0.94	-1.6	3.9
22	N#CN=C(N)c1ccccc1	i	1.06&0.83	-1.0	10.7
23	CCCn1c(=S)[nH]c2cc(C(=O)N3CCc4ccccc43)ccc2c1=O	i	0.93	-2.2	-4.5
24	CCOc1ccc(N2C(=O)CCC2=O)cc1	i	0.87	-0.5	-2.8
25	CCC1CCCCN1CCCNC(=O)c1cc2c(Cl)nc3ccccc3c2s1 (stereo not given)	i	0.68	·	5.3
26	COc1ccc(/C=N/Nc2nc(N)cc(Cl)n2)cc1OC	i	1.09	·	1.8
27	CCC(C)C(NC(=O)c1ccccc1NC(=O)c1ccccc1)C(=O)N1CCOCC1 (stereo not given)	i	0.88	-0.2	-7.5
28	Cc1ccc2nc(CSc3nnc(-c4ccco4)o3)cc(=O)n2c1	·	·	0.0	-10.8
29	CNC(=O)[C@@]1(C)C=C[C@@H](Cc2ccccc2)N1C(=O)OC	i	1.13	-0.8	-4.6
30	NC(=O)c1c(NC(=O)c2ccncc2)sc2c1CCCC2	i	0.99	·	0.1

entry	RGS16-Gao	INS promoter inh	INS promoter inh cell count
21	108.0	·	·
22	106.0&94.2	·	·
23	121.0	-21.1	101.8
24	96.3	·	·
25	123.2	·	·
26	99.6	·	·
27	102.5	-4.0	104.2
28	99.5	·	·
29	38.6	23.8	75.1
30	111.1	·	·

Other compounds
entry	SMILES	HSV augment	HSV augment primary fold	GALR2 ag	PKD1 inh
31	O=C(Nc1sc2c(c1C(=O)O)CCC2)c1ccc(F)cc1	i	0.93	·	-6.1
32	CCSc1nnc(C)c(=O)n1COC(=O)c1ccc(S(=O)(=O)N2CCCC2)cc1	i	1.02	-0.6	-8.1
33	CCOC(=O)c1c(C)[nH]c(C)c1C(=O)COc1ccc(NC(=O)c2ccco2)cc1	i	0.89	-0.9	-4.2
34	COc1ccc(N2CCN(CCCNC(=O)CCCn3c(=O)[nH]c4ccsc4c3=O)CC2)cc1	·	·	-0.4	-5.8
35	Cc1cc(C(=O)CN2C(=O)NC(Cc3c[nH]c4ccccc34)C2=O)c(C)n1C (stereo not given)	i	0.92	-2.0	-12.1
36	CCCCNC(=S)NNC(=O)c1ccco1	i	0.84	-2.8	1.4
37	CCCCc1nnc(NC(=O)COC)s1	i	0.98	·	6.4
38	O=C(CN1CCN(Cc2ccccc2F)C1=O)NCCc1ccc(Cl)cc1	i	0.92	-1.3	-2.8
39	O=C1CS/C(=N/N=C/c2ccccc2)N1Cc1ccco1	i	1.14	·	·
40	Cn1c(=O)[nH]c(=O)c2c1nc(NCc1ccco1)n2Cc1ccccc1Cl	i	1.02	·	-2.0

entry	RGS16-Gao	INS promoter inh	INS promoter inh cell count
31	104.8	·	·
32	92.3	·	·
33	98.0	30.6	102.1
34	106.0	-13.2	65.8
35	113.5	·	·
36	113.7	-15.0	113.5
37	103.2	·	·
38	102.4	·	·
39	99.7	·	·
40	116.1	·	·

Following part
entry	SMILES	HSV augment	HSV augment primary fold	GALR2 ag	PKD1 inh
41	COc1ccc(-n2c(C)cc(C(=O)COc3ccc(-n4cnnn4)cc3)c2C)cc1	i	1.05	-1.1	-6.5
42	Nc1ccc2oc(-c3ccccc3Cl)nc2c1	i	1.01	1.6	5.2
43	Cc1ccc(NC(=O)CN2C(=O)NC3(CCCc4ccccc43)C2=O)cc1S(=O)(=O)N1CCOCC1 (stereo not given)	i	1.01	·	-1.3
44	Cc1ccc(S(=O)(=O)NNC(=S)Nc2ccccc2)cc1	i	0.94	-3.3	-10.0
45	COc1ccc(N=Nc2nc3cc(Br)c(Br)cc3n2C)c(OC)c1	·	·	0.6	28.3
46	O=[N+]([O-])c1ccc(-c2ccc(/C=N/c3c(-c4ccco4)nc4ccccn34)o2)cc1	·	·	-2.8	0.8
47	O=C(Nc1ccc([N+](=O)[O-])cn1)C1CC2CCC1C2 (stereo not given)	i	1	0.9	1.9
48	O=C1c2ccccc2C(=O)N1CCCCSc1nnc(-c2ccc(OC(F)F)cc2)o1	i	0.93	0.9	-1.4
49	Clc1ccc(CN(Cc2ccccc2)C(c2cccs2)c2nnnn2C2CCCC2)cc1 (stereo not given)	i	1.05	-2.4	-3.8
50	CCN(Cc1ccncc1)Cc1c(O)ccc2ccccc12	i	1.18	·	-5.4

entry	RGS16-Gao	INS promoter inh	INS promoter inh cell count
41	96.3	·	·
42	98.5	·	·
43	100.6	-5.3	80.1
44	103.2	9.4	123.8
45	101.4	18.5	150.4
46	93.2	·	·
47	99.8	69.2*	120.1*
48	100.2	·	·
49	74.7	·	·
50	101.9	35.7	106.7

The list goes on.
entry	SMILES	HSV augment	HSV augment primary fold	GALR2 ag	PKD1 inh
51	Clc1ccccc1Cc1noc(CN2CCSCC2)n1	i	0.94	·	-2.0
52	CO/N=C/NC(=O)NOCc1ncc(C(F)(F)F)cc1Cl	i	0.94	-1.1	-8.6
53	O=C(/C=C/c1ccc(Cl)cc1)NCCN1CCOCC1	i	0.97	-1.9	2.4
54	COc1ccc(C(=O)NCc2nnc(SCC(=O)NO)n2Cc2ccccc2)cc1	i	1	·	-1.4
55	O=C1/C(=C/c2ccccc2)CSc2sccc21	i	1.01	-1.5	-9.7
56	CCc1cc(C(=O)c2ccc(OC)cc2)c(NC(=O)CN2CCCCC2)s1	i	1.18	·	·
57	Cc1ccc(NC(=O)CSc2nnc(-c3n[nH]c4ccccc34)n2-c2ccccc2)c(C)c1	i	1.04	-0.8	6.9
58	COc1ccccc1NS(=O)(=O)c1ccc(NC(=O)c2nc3nc(C)cc(C(F)F)n3n2)cc1	i	1.05	-0.4	-3.2
59	O=c1cc(N2CCC3(CC2)OCCO3)[nH]c(=O)n1-c1ccc(Cl)cc1	i	0.97	-2.3	4.3
60	O=C(Nc1nncs1)c1cc2c(s1)CCC2	i	0.84	·	-1.5

entry	RGS16-Gao	INS promoter inh	INS promoter inh cell count
51	106.3	·	·
52	95.2	-6.9	96.3
53	98.0	26.1	96.9
54	103.3	·	·
55	103.6	19.4	61.2
56	105.2	·	·
57	115.3	-9.1	94.9
58	101.2	0.0	122.6
59	96.6	·	·
60	93.0	·	·

Four compounds drawn at random from those above:
entry	SMILES	HSV augment	HSV augment primary fold	GALR2 ag	PKD1 inh
54	COc1ccc(C(=O)NCc2nnc(SCC(=O)NO)n2Cc2ccccc2)cc1	i	1	·	-1.4
60	O=C(Nc1nncs1)c1cc2c(s1)CCC2	i	0.84	·	-1.5
55	O=C1/C(=C/c2ccccc2)CSc2sccc21	i	1.01	-1.5	-9.7
53	O=C(/C=C/c1ccc(Cl)cc1)NCCN1CCOCC1	i	0.97	-1.9	2.4

entry	RGS16-Gao	INS promoter inh	INS promoter inh cell count
54	103.3	·	·
60	93.0	·	·
55	103.6	19.4	61.2
53	98.0	26.1	96.9

New compounds follow
entry	SMILES	HSV augment	HSV augment primary fold	GALR2 ag	PKD1 inh
61	O=C(Nc1ncnc2c1ncn2C1OC(COC(=O)c2ccccc2)C(F)C1O)c1ccccc1 (stereo not given)	i	0.95	-3.3	-7.8
62	Cc1cc(NC(=O)COc2ccc3oc4ccccc4c3c2)no1	i	0.89	0.1	8.0
63	COc1ccc(Nc2nnc(-c3ccc(O)cc3)c3ccccc23)cc1C(N)=O	i	0.89	·	-3.3
64	O=[N+]([O-])c1ccccc1OCCCCN1CCCCC1	i	1.07	-2.0	4.7
65	CC(/C=N/NC(=O)c1cc(-c2ccc3ccccc3c2)n[nH]1)=C\c1ccco1	i	0.69	0.2	-3.9
66	COc1ccc(OC)c(NC(=O)c2cccc(C)c2[N+](=O)[O-])c1	i	1.22	·	-5.1
67	COc1cccc(Nc2ccc(C(=O)O)cc2[N+](=O)[O-])c1	i	0.87	-0.4	5.4
68	Nc1nc2c(c(=O)[nH]1)C(c1cccc3ccccc13)C1=C(N2)c2ccccc2C1=O (stereo not given)	i	0.9	·	-0.6
69	CCN(CC)S(=O)(=O)c1cccc(-c2nnc(SCCCC(=O)c3ccccc3)o2)c1	i	0.82	1.4	4.8
70	O=[N+]([O-])/C(=C\Nc1ccccc1)S(=O)(=O)c1ccccc1	i	0.86	-0.5	-6.8

entry	RGS16-Gao	INS promoter inh	INS promoter inh cell count
61	102.8	-60.0	136.5
62	97.1	50.0	70.1
63	97.2	·	·
64	89.9	·	·
65	113.8	6.7	98.9
66	96.8	-19.1	75.6
67	97.8	28.1	93.8
68	109.6	·	·
69	102.5	·	·
70	96.8	-65.8	32.0
